# CapD inh: Bacillus anthracis CapD inhibitors, primary screen, biochemical, fluorescence intensity. AID 492967, 2010. z-score (concentration not given with the values). CapD gamma-glutamyltranspeptidase (Bacillus anthracis Ames Ancestor). purified CapD enzyme, fluorescence intensity read-out; hits give low values; some hits fall short of the stated cut. actives 0.23% (n = 140,000);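 active = z-score under -4 in either of two replicates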;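 note: stock transfer was 100 nL into about 40 µL; score is relative to mean and spread of the plate; one replicate is shown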
# AID504770: growth inhibition of E. coli YBA685, primary screen, V. cholerae RctB inhibitors; E. coli YBA685 rctB-dependent plasmid, OD600 growth, 3 h; hits give low values; z-score (concentration not given with the values); actives 0.27% (n = 130,000); AID 504770, 2011;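 active = z-score under -2 on both plates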;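 note: wells of about 30 µL received 100 nL stock; score is relative to mean and SD of the test wells; the first replicate is given; strong numbers were not always called active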
# * = called active by the depositor; . = not tested or not shown; & = joins results of further samples.
# Every second line gives: AID504770	CapD inh
- Cc1cccc(NC(=O)C(C)N2CCN(c3ccccc3O)CC2)c1 (configuration not stated)
→ -0.1	.
- O=C(O)c1ccc(C=Nc2ccc(C(=O)O)cc2)cc1
→ -0.6	0.355
- Cc1nn(-c2ccccc2)c2nc(-c3ccc4c(c3)OCO4)cc(-c3nnc4n3CCCCC4)c12
→ -1.3	.
- CC1(C)CC(=O)C(=CN2CCOCC2)C(=O)C1
→ 1.6	0.03
- CC1CN(S(=O)(=O)c2cccc(C(=O)Nc3ccccc3)c2)CC(C)O1 (configuration not stated)
→ -0.5	-0.075
- CN(C)CC(O)Cn1c2ccccc2c2ccccc21 (configuration not stated)
→ -1.05	16.1
- CN(Cc1ccccc1)C(=O)CNC(=O)Cn1ccc2ccccc2c1=O
→ -0.55	0.12
- O=C(Nc1ccc(C(=O)Oc2ccccc2)cc1)c1ccc(Br)c(S(=O)(=O)N2CCCCC2)c1
→ .	-0.185
- COc1ccc(-c2[nH]nc3c2C(c2ccc(OC(=O)N4CCOCC4)cc2)C(C#N)=C(N)O3)cc1 (configuration not stated)
→ .	0.31
- CC(NS(=O)(=O)c1ccccc1)C(=O)O (configuration not stated)
→ -0.45	.
- CCCC(=O)C1=C(O)C(C(=O)OC)C(C)(C)CC1=N (configuration not stated)
→ 0.65	.
- O=C(O)/C=C/C(=O)c1ccc(C2CCCCC2)cc1
→ 2.45	-0.27
- CCOc1ccc2nc(N3CCC(C(=O)NC4CC4)CC3)sc2c1
→ 0.2	0.135
- Cc1ccc(C(=O)NCC(=O)NC2CCCCC2)cc1
→ -0.4	-0.075
- COc1ccc(C(NC(=O)C2CC(=O)N(Cc3ccco3)C2)c2ccccc2)cc1 (configuration not stated)
→ -0.55	.
- Cc1cc(C(=O)CSc2nnc3sc4ccccc4n23)c(C)n1-c1ccc(Cl)cc1
→ .	-0.465
- CN(C)c1ccc(/C=N/N=C2/C(=N/O)CCc3nonc32)cc1
→ -0.9	-3.45
- CC1CCCCC1NC(=O)CN1CCC(NC(=O)Nc2ccccc2)CC1 (configuration not stated)
→ -0.55	.
- O=C(O)CCC1(CCC(=O)O)CCCCC1=O
→ -0.1	.
- O=C(CSc1nc2ccccc2c(=O)n1CC1CCC(C(=O)N2CCN(c3ccccc3)CC2)CC1)NCc1ccco1 (configuration not stated)
→ .	-1.35
- COc1ccccc1NC(=O)c1ccc(NC(=O)CSc2nnc(C)n2N)cc1
→ 0.05	.
- CC(=O)Nc1ccc(-c2nc3ccccc3o2)cc1
→ 1.45	69.3
- COc1ccc2c(c1)CC/C(=C/c1ccc(N3CCOCC3)cc1)C2=O
→ -0.2	0.16
- COc1cc(OC)cc(C(=O)N(C)Cc2ccccc2C)c1
→ 0.55	.
- Cc1cccc(C)c1NC(=S)NCc1ccco1
→ .	0.5
- O=C(Nc1cccc(C(F)(F)F)c1)C(NCCN1CCOCC1)c1ccccc1 (configuration not stated)
→ 0.05	.
- O=c1/c(=C/c2ccc(O)cc2)sc2nc3cc(Br)cnc3n12
→ .	-0.12
- N#CC(C#N)=Cc1cc(-c2ccccc2)n(-c2ccc([N+](=O)[O-])cc2)c1-c1ccccc1
→ .	0.21
- O=C(NCCc1ccc(Cl)cc1Cl)c1ccc2n[nH]nc2c1
→ .	0.335
- COC(=O)Cc1cc(=O)n(-c2nc3ccccc3s2)[nH]1
→ 1.95	-0.175
- COc1ccc2ccccc2c1CN1CCCCC1COC(=O)N1CCN(c2cccc3[nH]ccc23)CC1 (configuration not stated)
→ .	0.945
- Cc1c(C(=O)OCc2nc(-c3cccc(Cl)c3)no2)sc2nc3n(c(=O)c12)CCC3
→ 0.1	.
- CCCn1c(CNC(=O)c2cc(OC)c(OC)c(OC)c2)nc2ccccc21
→ -0.35	0.5
- Cc1ccccc1Cn1c2ccccc2c2cnn(CC(=O)NCCN3CCN(C)CC3)c(=O)c21
→ 1.6	18.9
- O=C(O)c1ccc2[nH]c(=O)c(=O)[nH]c2c1
→ -0.45&-0.45	52.8&38.7
- CCCC(=O)Nc1cc(C)c(NC(=O)C23CC4CC(CC(C4)C2)C3)cn1
→ 1.4	.
- COc1ccc(-c2nc3ccccn3c2NC(=O)C(C)C)cc1
→ 0.35	67.6
- O=C1C(/C=N/c2[nH]ncc2-c2ccccc2)=C(O)c2ccccc21
→ 0.6	-1.42
- CC(C)CC1(C)OCC(C[N+]2(C)CCCCC2)O1 (configuration not stated)
→ -0.35	1.16
- c1cc2c(cc1C1CCCCC1)c1c3n2CCN=C3CCC1
→ -0.9	0.28
- O=C(CSc1nc2ccccc2o1)Nc1ccc2c(c1)C(=O)c1ccccc1C2=O
→ .	0.225
- Cc1ccc(S(=O)(=O)Nc2nc(C)c(NC(=O)OCCOc3nc(N(C)C)nc(N(C)C)n3)s2)cc1
→ .	-0.345
- CCOC(=O)c1c(C)oc2nc(COC(=O)c3cc(-c4ccc(Cl)cc4)nc4ccccc34)nc(N)c12
→ -4.65*	.
- CCN(CC)CCN(C)C1CCC(c2ccccc2)CC1 (configuration not stated)
→ -1.05	-0.235
- CCCCn1c(SCC(=O)OCC)nc2c(sc(=S)n2CCc2ccccc2)c1=O
→ 0.35	7.77
- CCCCc1ccc(NC(=O)NC2Cc3ccccc3C2)cc1
→ .	0.225
- CC(C)CCNC(=O)c1cccc(Cl)c1
→ -0.35	0.265
- Cc1nn(C(=O)c2sc3ccccc3c2Cl)c(C)c1Sc1ccccc1[N+](=O)[O-]
→ .	0.055
- O=C(C1CCN(c2nnc(-n3cccc3)s2)CC1)N1CCCCC1
→ -0.35	0.795
- Clc1ccc(Sc2c(-c3ccccc3)nc3ncccn23)cc1
→ 0.75	2.13
- FC(F)(F)C1(C(F)(F)F)N=C(c2ccccc2)OC(N2CCCCC2)=N1
→ -0.5	-0.935
- Cc1oc2nc[nH]c(=O)c2c1C(=O)NCc1ccccc1
→ 0.5	.
- Nc1nc(SCC(=O)NCc2ccccn2)nc2sc3c(c12)CCCC3
→ -0.75	1.23
- CC1(C)CC(=O)C2=C(C1)OC(N)=C(C#N)C2c1ccc(OC(=O)c2ccccc2)cc1 (configuration not stated)
→ .	-0.395
- COc1ccc2nc(SC(=O)c3ccccc3Cl)nc(C)c2c1
→ .	-0.085
- CCn1c(C)cs/c1=N\C(=S)Nc1ccccc1C
→ -0.2	.
- O=C1CCCc2nc(-c3ccc(O)cc3)ncc21
→ -1.05	-2.65
- O=C(NCCc1ccccn1)C1CCN(C(=O)c2ccc(F)cc2)CC1
→ -0.5	.
- Cc1cccn2c(=O)c(/C=C3\SC(=S)N(CCCCCC(=O)O)C3=O)c(NCCN3CCOCC3)nc12
→ .	-0.035
- O=C(Cn1ccc(C(F)(F)F)n1)Nc1cccc(C(F)(F)F)c1
→ -0.9	-1.15

# Going on with the list.
# Every second line gives: AID504770	CapD inh
- COc1cccc(N(CC(=O)Nc2ccc(C)cc2)S(C)(=O)=O)c1
→ 1.9	0.18
- Cc1ccc(-c2cc(-c3ccco3)c(C#N)c(SCC(=O)Nc3ccc(Cl)c(Cl)c3)n2)cc1
→ 0.2	2.74
- Cc1ccc(-c2cc(C(=O)N3CCCN(C)CC3)c3ccccc3n2)cc1
→ -0.65	40.7
- CCOC(=O)C1CCN(C(=O)c2ccc(OCC)cc2)CC1
→ 2.15	.
- CCOC(=O)/C(N=Nc1c(C)n(C)n(-c2ccccc2)c1=O)=C(/O)c1ccccc1
→ 0.6	.
- CCOc1ncccc1C(=O)Nc1cccc(C(=O)Nc2cccc(S(=O)(=O)CCO)c2)c1
→ -0.5	0.105
- CC1(C)Cc2c(cnn2-c2ccccc2)C(=O)/C1=N\NC(=O)c1ccncc1
→ -0.25	-0.285
- COc1ccc(C(=O)NNC(=O)OCCc2ccccc2F)cc1
→ .	-1.38
- O=C(Oc1ccc(Oc2ccccc2)cc1)c1ccc([N+](=O)[O-])cc1
→ .	0.04
- NCc1ccc(Cl)cc1
→ -0.25	.
- CC(C)CC(NC(=O)C1CCCCC1)C(=O)N1CCN(c2ccccc2F)CC1 (configuration not stated)
→ -0.65	-0.665
- O=C(CSc1nnc(-c2ccccc2O)o1)Oc1ccc(OCc2ccccc2)cc1
→ 0.15	.
- O=S(=O)(NCCc1c[nH]c2ccc(Cl)cc12)c1ccc(Br)s1
→ .	-0.825
- CCNc1ccc2c(Cl)cc(=O)oc2c1
→ -0.65	.
- COn1c(=O)c(-c2cccc(C(F)(F)F)c2)[n+]([O-])c2ccccc21
→ 0.4	1.83

# 4 structures already listed, arranged by molar mass, descending.
# Every second line gives: AID504770	CapD inh
- CCOc1ncccc1C(=O)Nc1cccc(C(=O)Nc2cccc(S(=O)(=O)CCO)c2)c1
→ -0.5	0.105
- COc1cccc(N(CC(=O)Nc2ccc(C)cc2)S(C)(=O)=O)c1
→ 1.9	0.18
- O=C1C(/C=N/c2[nH]ncc2-c2ccccc2)=C(O)c2ccccc21
→ 0.6	-1.42
- CC(C)CC1(C)OCC(C[N+]2(C)CCCCC2)O1 (configuration not stated)
→ -0.35	1.16

# Following part.
# Every second line gives: AID504770	CapD inh
- CNS(=O)(=O)c1cc(-c2nnc(NCc3nc4ccccc4[nH]3)c3ccccc23)ccc1C
→ .	0.235
- CCOC(=O)C1=C(C)N=c2s/c(=C\c3cccc(OC(C)=O)c3)c(=O)n2C1c1ccccc1OC(C)C (configuration not stated)
→ .	0
- NC(=S)NC1CC2C=CC1C2 (configuration not stated)
→ -0.35	0.4
- Cc1ccc2c(c1)c1c(n2CC(O)CNCC2CCCO2)CCCC1 (configuration not stated)
→ 0.8	0.49
- O=S(=O)(NCCN1CCCC1)c1cc2ccccc2s1
→ -1.2	-0.17
- Oc1ccc(CNc2ccccc2Cl)c2cccnc12
→ 1.8	.
- CCOC(=O)C(C)Sc1nc2c(c(=O)[nH]c(=O)n2C)n1CC(O)COc1ccc(Cl)cc1 (configuration not stated)
→ 0	0.175
- Cc1cc(C)c(C)c(S(=O)(=O)NCCOc2ccccc2)c1C
→ .	-0.43
- COc1cc(C2C3=C(CCCC3=O)OC3=C2C(=O)CCC3)cc(Br)c1O
→ 1.35	-0.305
- CCOc1ccc2nc(SC(C)C(N)=O)[nH]c2c1 (configuration not stated)
→ -0.75	.
- CCC(=O)NC(C)Cc1c[nH]c2ccccc12 (configuration not stated)
→ -1.9	2.44
- Fc1cccc(N=Cc2ccc(Cl)c(Cl)c2)c1
→ .	0.155
- COc1ccc(OC)c(C(=O)COc2ccccc2C#N)c1
→ -0.75	12.3
- O=C(CCC(=O)c1ccccc1)Nc1ccccc1F
→ 1.6	-0.15
- COc1ccc(/C=C/C(=O)OC2CCOC2=O)cc1OC (configuration not stated)
→ -1.65	.

# Structural class: the entries above with bromine.
# Every second line gives: AID504770	CapD inh
- O=C(Nc1ccc(C(=O)Oc2ccccc2)cc1)c1ccc(Br)c(S(=O)(=O)N2CCCCC2)c1
→ .	-0.185
- O=c1/c(=C/c2ccc(O)cc2)sc2nc3cc(Br)cnc3n12
→ .	-0.12
- O=S(=O)(NCCc1c[nH]c2ccc(Cl)cc12)c1ccc(Br)s1
→ .	-0.825
- COc1cc(C2C3=C(CCCC3=O)OC3=C2C(=O)CCC3)cc(Br)c1O
→ 1.35	-0.305

# (further entries)
# Every second line gives: AID504770	CapD inh
- O=C(COc1ccc(-n2cnnn2)cc1)NCC(F)(F)F
→ -0.4	.
- N/C(Cc1nc(-c2ccc(F)cc2)cs1)=N\O
→ .	-0.01
- c1ccc(-c2csc(-c3ccc(-c4csnn4)cc3)n2)cc1
→ 0.6	-0.45
- CCOC(=O)C1=NNC2C(=O)N(c3ccc(C#N)cc3)C(=O)C12 (configuration not stated)
→ .	-0.15
- CCOC(=O)C1=C(C)N=c2s/c(=C\c3cc(OC)c(OC)cc3[N+](=O)[O-])c(=O)n2C1c1ccc(OC)c(OC)c1 (configuration not stated)
→ .	-0.195
- Oc1ccc2ccccc2c1C(N=Cc1ccccc1)c1ccccc1 (configuration not stated)
→ .	2.04
- CC(C)CCNC(=O)c1cc2oc3ccccc3c2n1C
→ 1.1	4.75
- CCOC(=O)C1=C(C(=O)OCC)SC2(S1)C(C(=O)OCC)=C(C(=O)OCC)SC1=C2c2cc(C)ccc2N(C(=O)C(C)C)C1(C)C
→ .	-0.22
- C=CCOc1ccc(C2N3CC4(C(C)C)CN2CC(C(C)C)(C3)C4=O)cc1 (configuration not stated)
→ .	-0.49
- O=C(NC1CC1)c1sccc1-c1ccccc1
→ -0.65	.
- COc1ccc(-c2cn3cccc(C)c3n2)cc1OC
→ .	63.1
- CSc1nc(/N=C/N(C)C)n2nc(-c3ccccc3)cc2n1
→ -1.35	0.675
- CCOc1ccc(C2C(C#N)=C(N)Oc3c2c(=O)oc2ccccc32)cc1OCC (configuration not stated)
→ .	0.83
- CC(=O)NC(C)c1nc(-c2ccccc2)no1 (configuration not stated)
→ -0.2	-0.035
- CCC1CCC2(CC1)NC(CO)(CO)CO2 (configuration not stated)
→ 0.8	0.28
- CC(C)c1ccc(N(C(=O)c2ccccc2)C2C=CS(=O)(=O)C2)cc1 (configuration not stated)
→ -1.15	1.64
- Cn1cccc1C(=O)NNC(=O)NCCNc1ccc([N+](=O)[O-])cn1
→ .	-1.52
- CC1CCc2c(oc3ccc(NS(=O)(=O)c4ccc5ccccc5c4)cc23)C1 (configuration not stated)
→ .	0.08
- O=C(NCCN1CCOCC1)c1ccc(-n2cccn2)cc1
→ -0.25	-0.155
- COc1ccc(C(=O)Cn2ccnc2C(=O)N2CCN(c3ccccn3)CC2)cc1
→ -0.45	-0.33
- CCN(CC)c1nc(C)nc2sc(C(=O)N(C)C3CCCCC3)c(C)c12
→ .	-0.325
- CC(C)Nc1nc(-c2ccccc2O)nc2ccccc12
→ -0.05	-0.475
- COc1ccc(C2Nc3ccccc3C(=O)N2c2ccccc2)cc1CSc1nc2ccccc2s1 (configuration not stated)
→ .	34.5
